Compound activity deposited in PubChem BioAssay by several laboratories.
Mtb hypoxia inh: inhibitors of hypoxia-regulated fluorescent reporter in Mycobacterium tuberculosis. M. tuberculosis hypoxia-regulated fluorescent reporter, fluorescence. fluorescence inhibition, % (test concentration not listed). actives 0.1% (n = 300,000). AID 1159583;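 active means 35 to 45% if threefold the growth effect, above 45% if 1.5-fold the growth effect; inactive means the rest, general growth blockers included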;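 further: wells of about 50 µL received 100 nL stock; 0% = vehicle wells and 100% = reference inhibitor wells; whole bacteria with a GFP reporter of the hypoxia response; strong numbers were not always called active; many hits fall short of the cut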
Sa ugtP lethal: growth inhibition of S. aureus ugtP deletion strain | growth inhibition, % (test concentration not listed) | S. aureus RN4220 ugtP deletion, OD600 growth, 16 h; some inactives read as strong as hits | AID 1259309 | actives 0.54% (n = 330,000);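 active means z-score under -3 and OD600 up to 0.15 on both plates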;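 further: plate controls were untreated wells for no effect and antibiotic for full effect; wells of about 80 µL received 100 nL stock; the first replicate is given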
BJeLR lethal: kills HRASV12-expressing BJeLR cells; actives 0.17% (n = 300,000); BJeLR (HRASV12) viability, CellTiter-Glo ATP luminescence, 48 h; reference of the scale not given here; inhibition, % (no concentration beside the values);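 active means replicate mean above 50%; inconclusive means above 50% but judged a plate artefact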;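 further: 50 nL library stock added to about 25 µL; numbers are from one replicate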
Autofluor counter: flagged as autofluorescent in microsphere protease counterscreen; fluorescence intensity (concentration not given with the values); compound autofluorescence counterscreen, microsphere flow cytometry; active compounds read high; actives 3.1% (n = 360,000);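 active means at least 3 SD above the mean of all compounds, about 16000 in these data; inconclusive means too few beads counted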;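 further: 100 nL of 1 mM stock went into each well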
RN4220 kill: kills Staphylococcus aureus RN4220 | S. aureus RN4220 growth, OD600, 16 h | inhibition, % (no concentration beside the values) | actives 0.33% (n = 330,000);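 active means z-score of -3 or lower and OD600 up to 0.18 on both plates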;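 further: plate controls were untreated cells for no effect and reference antibiotic for full effect; stock transfer was 100 nL into about 80 µL; one replicate is shown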
PrP 5UTR inh: suppresses PrP 5' UTR mRNA reporter expression; cell-based PrP 5' UTR mRNA reporter, plate reader; inhibition, % (test concentration not listed); actives 0.35% (n = 340,000); AID 488862;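 active means every replicate at 50% or more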;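 further: 0 = median of the neutral control wells; tested in H4 reporter cells; numbers are from one replicate; inactives centre near -14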
Mtb hypoxia inh growth: further read-out of Mtb hypoxia inh, marked with its call; growth inhibition, %; measured here: M. tuberculosis growth (absorbance);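 0% = vehicle and 100% = reference antibiotic; read after six days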
* marks the source's active call; other numbers are inactive results; ? = inconclusive; . = no result given.

SMILES	Mtb hypoxia inh	Mtb hypoxia inh growth	Sa ugtP lethal	BJeLR lethal	Autofluor counter	RN4220 kill	PrP 5UTR inh
Cc1cccc(C)c1NC(=S)NC(C)(C)CO	-1	5	3	0	6055	-1.9	-24
O=C(NCc1ccco1)c1ccccc1NS(=O)(=O)c1ccc(Cl)s1	.	.	53	10	3155	64	-18
O=C(N/N=C/c1ccc[nH]1)c1cc2ccccc2cc1O	.	.	.	4	4392	.	-51
Cc1nonc1OCCNCCNc1ccc([N+](=O)[O-])c2cccnc12	15	10	15	-3	2051	3.4	-20
COc1ccc(CN(C)CC(=O)Nc2cccc(S(=O)(=O)N(C)c3ccccc3)c2)c(OC)c1	9	3	0	.	3713	5.9	-4
Cc1cc(F)ccc1NC(=O)C1CCN(C(=O)Nc2ccccc2)CC1	1	3	1	7	6466	1.9	-19
COc1ccc(COC(=O)NC(C(=O)O)c2ccccc2)cc1 (centres undefined)	5	1	-2	-1	2964	4.6	-18
CC12CCC(=O)N1C(C(=O)NCCN1C(=O)S/C(=C\c3ccccc3Cl)C1=O)CS2 (centres undefined)	6	2	13	.	6115	10	-5
COc1ccc(-n2c(N)c(C(=O)NCc3ccco3)c3nc4ccccc4nc32)cc1	4	0	2	-8	13551	-1.0	-23
O=C(CCN1CCN(C(=O)c2ccco2)CC1)Nc1ccc(F)cc1	.	.	-8	-1	4864	-1.2	-27
O=C1C(=O)N(Cc2cccnc2)C(c2ccccn2)/C1=C(/O)c1ccc(F)cc1 (centres undefined)	0	0	-1	5	4264	3.3	-6
O=C(CCc1nc(-c2ccccc2F)no1)NCc1ccco1	12	17	10	-7	5877	4.9	-13
O=C(CCSCc1ccc(Cl)cc1)NCc1cccnc1	-7	5	-3	-2	4362	-0.6	-12
COc1ccc(CNC(=O)C2CCN(S(=O)(=O)N3CCCC3)CC2)cc1	7	0	2	10	5800	1.3	-9
COCC(=O)OCC(=O)N1N=C(c2ccc(Cl)cc2)CC1c1ccco1 (centres undefined)	1	7	5	-3	3229	8.1	-12
CCOC(=O)Cc1nn2c(=O)cc(C)nc2s1	.	.	-2	4	3756	4.4	-1
COc1ccc(-n2nc(C(=O)NCC(=O)Nc3cccc(Cl)c3)c3ccccc3c2=O)cc1OC	11	24	-6	11	3717	5.7	-14
C[N+]1(C)CCCC(OC(=O)C(O)(c2ccccc2)c2ccccc2)C1 (centres undefined)	-4	-2	2	5	5309	5.1	-11
CCN1CCc2c(OCC(=O)N3CCc4ccccc43)cccc2C1=O	4	-4	2	-9	.	1.4	.
O=[N+]([O-])/C=C/c1cn(Cc2ccc(F)cc2)c2ccccc12	13	4	-30	5	6767	33	11
Cc1ccc2c(CC(=O)N(CC3CCCO3)c3c(N)n(Cc4ccccc4)c(=O)[nH]c3=O)coc2c1 (centres undefined)	1	5	2	-1	?	5.0	-13
O=C(O)C1=C(C(=O)Nc2cc(C(F)(F)F)ccc2Cl)CCCC1	7	6	0	-1	4438	4.2	-4
CC1CN(C(=O)c2cccc(S(=O)(=O)N3CCN(c4ccccc4)CC3)c2)CC(C)O1 (centres undefined)	0	-3	5	.	7502	8.1	-21
C=CCN(c1ccc(OC)cc1)S(=O)(=O)c1ccc(Cl)c(C(=O)OCC(=O)NC2CC2)c1	-12	-5	-2	5	2610	2.1	-7
Clc1ccc(CSc2nnc(/C=C/c3ccccc3)o2)c(Cl)c1	.	.	19	3	2701	4.7	-15
CCOC(=O)N1CCN(CC(=O)Nc2nc3ccccc3s2)CC1	-2	1	12	-4	3958	2.1	-16
CC(C)C[C@@]12C(=O)N(c3cccc(F)c3)C(=O)N1[C@H](c1ccc(Br)cc1)[C@@H]1C(=O)N(C(C)(C)C)C(=O)[C@@H]12	.	.	.	1	3619	.	2
C=CCNC(=O)c1n[nH]c2c1CC(C(C)(C)CC)CC2 (centres undefined)	15	1	9	.	3936	6.2	-3
COc1ccc(C2=NS(=O)(=O)N(C)C(C(=O)NCc3ccco3)=C2)cc1OC	2	0	-7	-2	5901	3.8	9
COc1ccccc1CN(C)C(=O)COC(=O)c1ccc(Cl)nc1	19	11	3	.	3407	2.9	-27
CCCCNC(=O)C1(O)c2cc(Br)ccc2NC(=O)N1c1cccc(OC)c1 (centres undefined)	7	-2	13	2	3960	1.1	-24
COCC(C)n1c(SC(C)C(=O)NC2CCCCC2C)nc2ccccc2c1=O (centres undefined)	4	2	9	0	5998	3.8	-27
CN1CCN(C(=S)NC(=O)c2ccc(Cl)cc2)CC1	0	5	-2	8	4223	1.6	-10
Cc1c(C(=O)Nc2cccc([N+](=O)[O-])c2)sc2ncn(CC(=O)N3CCOCC3)c(=O)c12	3	2	11	-9	4131	5.5	-8
COc1ccc(NC(=O)COC(=O)CNC(=O)COc2ccccc2)cc1OC	-6	-2	4	.	4706	1.9	-18
Cc1ccc(S(=O)(=O)CCC(=O)OCC(=O)NCCc2ccccc2)cc1	4	-1	1	-7	.	0.7	-1
COC(=O)C(C(C)=O)C1=CC(=NS(=O)(=O)c2ccc(C)cc2)c2ccccc2C1=O (centres undefined)	7	8	-10	.	.	6.2	.
COc1cc(/C=C2\N=C3CCCCCN3C2=O)ccc1O	0	4	-2	-1	12589	-2.2	-1
CCOc1ccc(OCC)c(NC(=O)C2CCN(c3cnccn3)CC2)c1	9	4	7	-10	4728	4.6	-29
CCC1(CC)C(=O)NC(=NCCc2c[nH]c3ccccc23)NC1=O	0	9	3	11	17043*	1.7	-9
CC(=O)Nc1ccc(NC(=O)C(C)Oc2ccccc2C(=O)NCc2ccccc2)cc1 (centres undefined)	2	3	9	.	.	6.7	-19
COc1ccc(/C=C(\C#N)C(=O)OCC(=O)NCc2ccc(Cl)cc2)cc1	17	11	-2	-4	.	1.7	.
O=[N+]([O-])c1ccc(C=NNc2nc(N3CCCCCC3)nc(N3CCCCCC3)n2)o1	-78	-25	79	.	.	76	.
CN(C)/C=C(/C(=O)c1ccccc1)n1cncn1	.	.	.	0	4373	.	-24
O=C(Nc1ccccc1)N(C1=NCCCCS1)c1cccc2ccccc12	-26	-21	-10	16	4415	-3.8	-43
CNc1nnc(-c2cccc(N(C)C)c2)s1	.	.	8	11	3813	-0.5	-22
COc1ccc(C(=O)Nc2nnc(C3=COCCO3)o2)cc1OC	-5	-4	0	-18	6047	0.3	-10
CCc1ccc(Nc2ncccc2C#N)cc1	0	7	-4	-1	3350	-4.2	-43
Cc1ccccc1CN1CCN(S(=O)(=O)c2ccc(Cl)s2)CC1	12	16	6	-10	4714	-1.3	6
Cc1nn(CC(=O)N2CCc3ccccc32)c(C)c1S(=O)(=O)NC(C)(C)C	-7	2	-3	.	3861	0.6	-8
CC(C)CCNC(=O)C12CN(Cc3ccccc3)CC1C(c1ccc([N+](=O)[O-])cc1)=NO2 (centres undefined)	6	1	-2	0	4243	2.3	-9
O=C(/C=C/c1ccco1)NC(=S)Nc1cccc(-c2nc3ccccc3o2)c1	.	.	98*	44	2762	15	-24
COc1cccc(/C=N/n2cnnc2)c1OCc1ccccc1	.	.	.	-2	3399	.	-19
COc1cc(OC)c(OC)cc1/C=N/NC(=O)CCc1c(C)n[nH]c1C	.	.	.	-15	3752	.	-19
Cc1ccc(S(=O)(=O)N2c3ccccc3OCC2C(C)(C)C)cc1 (centres undefined)	-4	-9	29	-2	4317	2.9	-5
O=C(CCCCCNC(=O)N1CCn2c1nc1ccccc12)N[C@H](Cc1ccccc1)C(=O)O	.	.	7	2	3864	0.4	-9
Cc1ccccc1NC(=O)C1CC(=O)OC12CCOC(C)(C)C2 (centres undefined)	9	-4	4	-16	4770	-1.9	-11
CC(C)(C)c1ccc(NC(=O)COC(=O)c2ccc(NS(=O)(=O)c3ccc(F)c(F)c3)cc2)cc1	2	6	-30	2	1966	0.6	-12
CCCOc1ccc(C(=O)NC2CCSc3ccccc32)cc1 (centres undefined)	4	2	18	12	3592	19	-25
Cc1cccc(C)c1NC(=O)N1CCC(n2c(=O)[nH]c3ccccc32)CC1	-1	-10	-1	-8	6255	-1.3	-7

Further results
SMILES	Mtb hypoxia inh	Mtb hypoxia inh growth	Sa ugtP lethal	BJeLR lethal	Autofluor counter	RN4220 kill	PrP 5UTR inh
CC[C@]12c3[nH]c4ccccc4c3CCN1C(=O)C(CC(=O)NCCC1=CCCCC1)C[C@@H]2C(=O)N1CCN(C(=O)c2ccco2)CC1 (some centres undefined)	2	12	2	.	3715	-3.2	5
COC(=O)c1ccc(N2Cc3ccccc3C2=NC(=O)Nc2ccccc2)cc1	1	7	10	.	.	1.0	.
CC(=O)Nc1cccc(C(C)=NNC(=O)c2ccc(O)cc2)c1	3	9	-4	.	.	3.3	.
Nc1nc2ccc(Br)cc2o1	9	15	2	.	4009	1.6	-14
Nc1nc(-c2c[nH]c3ccccc23)cs1	-3	2	-12	-3	3707	3.4	-31
Cn1cc([N+](=O)[O-])c(C(=O)NCC(=O)O)n1	0	-4	10	0	3293	1.9	4
Cc1ccccc1NC(NC(=O)OCCn1c([N+](=O)[O-])cnc1C)C(Cl)(Cl)Cl (centres undefined)	0	-2	-2	4	1929	-0.5	-12
Cc1oc(C(C)(C)C)cc1C(=O)NC(Cc1ccccc1)C(=O)O (centres undefined)	-2	-1	4	7	3870	-3.2	-7
CCCC(=O)NC(=S)Nc1ccc(S(=O)(=O)N2CCc3ccccc32)cc1	10	6	79	-1	4385	3.5	.
CC(=O)OC1CCC2(C)C(CCC3C2CC(OC(C)=O)C2(C)C3C[C@@H]3O[C@]4(CC[C@@H](C)CO4)[C@@H](C)C32)C1 (some centres undefined)	.	.	-7	2	.	5.5	.
COc1cc(NC(=O)c2ccco2)c(OC)cc1NC(=O)CSc1ncc(-c2ccc(F)cc2)[nH]1	5	2	1	-3	6051	5.3	-18
Cc1nc(NC(C)c2ccccc2)sc1C(=O)Nc1ccccc1 (centres undefined)	13	11	16	1	3020	-0.2	-16
CCOC(=O)c1sc(SC)c(C(C)=O)c1C	.	.	-8	5	4647	1.3	5
Cc1noc(C)c1COc1ccc(CC(=O)NCCc2ccccc2)cc1	-2	-5	-2	3	8573	2.4	-24
COc1cc(C(=O)NC(=S)Nc2ccc(Cc3ccncc3)cc2)cc(OC)c1OC	3	10	-7	4	3429	3.5	-15
O=C(NNC1=NCCC1)c1cccc(S(=O)(=O)N2CCCCC2)c1	5	1	4	1	2089	1.8	-8
O=C(O)C1CCCCC1C(=O)NCc1ccc(F)cc1 (centres undefined)	3	-5	13	-5	?	5.2	-6
CCN(C(=O)c1ccc2c(SCC(=O)O)c3c(nc2c1)CCC3)c1cc(Cl)ccc1OC	6	-2	-3	-6	5167	0.2	0
O=C(C1=C[C@H](C2CCCCC2)C[C@H](OCc2ccc(CO)cc2)O1)N1CCOCC1	.	.	.	13	3995	.	-26
O=C(CNC(=O)c1ccco1)Nc1ccc(Cl)cc1	9	8	8	5	3060	5.7	-8
CC(C)n1cnc2c(Nc3ccc(F)c(Cl)c3)nc(NCCO)nc21	-5	-5	3	3	3860	10	-3
CC(=O)NCCn1c(SCC(=O)NC2CCCCC2)nc2ccccc2c1=O	9	5	5	18	3503	4.2	-13
CCCSc1nc2c(c(=O)n(C)c(=O)n2C)n1C	12	5	6	-1	3002	0.9	-13
